H5N1 CPE: MDCK cell protection from H5N1 avian flu | inhibition, % at 50 µM | AID 740 | cytopathic effect, luminescence, 72 h; hits give high values; no value below 0 was filed and about half of the inactive calls have no number; reference of the scale not given here | 96,000 compounds, 0.07% hits; in the data active = inhibition above about 25%
* hit, by the source's call; i = inactive; & = joins results of further samples. Only part of the results is shown; rates above refer to the full screens.

canonical_smiles	H5N1 CPE
CC(=O)C1=C(O)C(=O)N(CC(=O)O)C1c1ccccc1Cl (stereo unspecified)	0.7
CCOc1ccc(/C=N/n2c(SC)nnc(C(C)(C)C)c2=O)cc1	0.0
COc1ccc2[nH]c(C)c(C(=O)CN3CC(C)OC(C)C3)c2c1 (stereo unspecified)	0.4
O=C1CC(c2cccc(Br)c2)c2cc3c(cc2N1)CCC3 (stereo unspecified)	0.4
CCN1CCN(C(c2cccs2)C(C)NC(=O)c2cccnc2)CC1 (stereo unspecified)	1.4
CCOC(=O)C1(C)NC(c2ccc(OC)c(OC)c2)C2C(=O)N(CC)C(=O)C21 (stereo unspecified)	0.4
Cn1c(=O)c2c(nc(CN3CCOCC3)n2CCc2ccccc2)n(C)c1=O	0.2
COc1ccc(CNc2ccc(-c3ccccc3OC)nn2)cc1	i
COC(=O)CSc1nc(-c2ccccc2)c2c(c1C#N)CCCC2	i
CC1=C(C(=O)Nc2ccccc2)C(c2ccco2)n2ncnc2N1 (stereo unspecified)	0.1
CCCCCN(C(=O)COC(=O)c1ccc(Br)o1)c1c(N)n(CCCC)c(=O)[nH]c1=O	i
O=C(NC(=S)Nc1ccccc1O)c1ccc(-c2ccc(Cl)cc2)o1	i
CCN1CCN(CC(=O)Nc2ccccc2)C(=O)C1=O	0.8
Cc1noc(/C=C/N(C)C)c1S(=O)(=O)NC1CCCCC1	i
O=C(c1cnn2c(C(F)(F)F)cc(-c3ccc4c(c3)OCO4)nc12)N1CCCC1	0.5

Structural class, the compounds so far with an aryl methoxy group
canonical_smiles	H5N1 CPE
COc1ccc2[nH]c(C)c(C(=O)CN3CC(C)OC(C)C3)c2c1 (stereo unspecified)	0.4
CCOC(=O)C1(C)NC(c2ccc(OC)c(OC)c2)C2C(=O)N(CC)C(=O)C21 (stereo unspecified)	0.4
COc1ccc(CNc2ccc(-c3ccccc3OC)nn2)cc1	i

(more compounds)
canonical_smiles	H5N1 CPE
Fc1cccc(C[n+]2csc3ccccc32)c1	2.4
Oc1ccccc1/C=N/c1c(-c2ccco2)nc2ccccn12	i
O=C(CSCc1c(Cl)cccc1Cl)Nc1nccs1	1.3
CCCCCCn1c(O)c(C=NCCCn2ccnc2)c(=O)[nH]c1=O	0.9
Cc1cc(C(=O)CSc2nnc(-c3ccccc3F)o2)c(C)n1Cc1cccs1	1.1
CC(C)Cc1nnc(NC(=O)CSc2nc(=O)cc(N)n2-c2ccccc2)s1	i
COc1ccc(N2CC(C(=O)NCCC3=CCCCC3)CC2=O)cc1 (stereo unspecified)	0.7
Cc1cc(=O)n2nc(N3CCCC3C(=O)NCCCN3CCCCC3)sc2n1 (stereo unspecified)	0.1
CCN1CCN(C(=O)c2cc3cc4cc(OC)ccc4nc3s2)CC1	3.5
O=C(/C=C/c1ccccc1Cl)c1cccnc1	i
O=C(Cn1cnc2c(nnn2-c2ccccc2)c1=O)N1CCOCC1	i
CCOC(=O)C1CCCc2c1[nH]c1c(C(N)=O)cccc21 (stereo unspecified)	1.1
CCOc1ccc(Cn2nnc(C(=O)Nc3ccc(OC)cc3OC)c2N)cc1	0.5
CN(c1ccc(C(=O)NC2CC3CCC2C3)cc1)S(C)(=O)=O (stereo unspecified)	0.4
O=S(=O)(c1ccccc1)c1nc(-c2ccco2)oc1NCCCN1CCOCC1	1.2
Cc1ccc(-c2cc(C(F)F)n3ncc(C(=O)N4CCN(c5ccccn5)CC4)c3n2)cc1	i
COc1ccc(S(=O)(=O)NC(CC(=O)NCC2CCCO2)c2ccco2)cc1 (stereo unspecified)	i
CCN(CCO)c1ccc(-n2c(N)c(C(=O)OC)c3nc4ccccc4nc32)cc1	2.0
Cc1ccc(C2CC(c3ccco3)n3ncnc3N2)cc1 (stereo unspecified)	i
CCC(=O)Nc1nc2ccccc2n1Cc1ccccc1C	1.1
COC(=O)C1=C(CSCc2ccco2)NC(=O)NC1c1cc(C)ccc1C (stereo unspecified)	1.0
O=C(NCCc1ccccc1)c1cc(S(=O)(=O)N2CCOCC2)ccc1F	i
Cc1cc(C)cc(C(=O)n2cnnc2N)c1	0.8
CCOc1ccc(Nc2nc3ccccc3n3nnnc23)cc1	i
COc1cccc(-c2nc(CS(=O)CC(=O)NC3CC3)c(C)o2)c1 (stereo unspecified)	0.4
Cc1ncoc1C(=O)Nc1nccs1	0.5
CC(=O)Oc1ccc(-c2csnn2)cc1	i
CCOc1ccccc1CN1C(=O)c2ccccc2C1C(=O)NCC1CCCO1 (stereo unspecified)	0.8
O=c1cc(N2CCN(Cc3ccccc3)CC2)[nH]c(=O)n1-c1ccc(Br)cc1	i
CSc1ccccc1NC(=O)CCn1c(=O)sc2ccccc21	0.3
CCOc1cc(C)c(S(=O)(=O)Nc2ccc3cn[nH]c3c2)cc1C	i
CCOC(=O)c1nnn(CC(=O)Nc2cccc(Cl)c2C)c1C(=O)OCC	1.2
Cc1ccc(S(=O)(=O)NCCCN2CCOCC2)cc1C	i
CCOC(=O)c1[nH]c(C)c(C(=O)NCCCN2CCOCC2)c1C	0.9
COc1ccc(CNC(=O)C2CCCN(S(=O)(=O)c3c(C)n[nH]c3C)C2)cc1 (stereo unspecified)	0.2
CC(=O)Nc1c(C)nn(-c2ccc(C)c(C)c2)c1C	i
COc1cccc(C(=O)N/N=C2/SCC(=O)N2CCc2ccc(OC)c(OC)c2)c1	1.0
Cc1ccc(NS(=O)(=O)c2ccc(C(=O)N3CCN(c4ccccn4)CC3)cc2)cc1	i
COc1ccc(CCNC(=O)c2ccc(CN3CCOCC3)cc2)cc1	i
CC1(C)NC(C)(C)C(O)(C(N)=O)C1=O (stereo unspecified)	i
Cc1ccc2nc(N3CCN(c4cccc(C)c4C)CC3)c3nnnn3c2c1	1.0
CCCNC(=O)NC(=O)CSc1nc2ccccc2n1CC(C)C	i
CCCCn1c(Nc2ccccc2)nc2ccccc21	0.5
COc1ccc(NC(=O)c2c(C)oc3c2CCCC3)cc1	i
CC1Cc2ccccc2N1C(=O)CSc1nnc2c(n1)[nH]c1ccccc12 (stereo unspecified)	i

Nothing new here: six of the compounds above.
canonical_smiles	H5N1 CPE
COc1ccc(CCNC(=O)c2ccc(CN3CCOCC3)cc2)cc1	i
CC1(C)NC(C)(C)C(O)(C(N)=O)C1=O (stereo unspecified)	i
Cc1ccc2nc(N3CCN(c4cccc(C)c4C)CC3)c3nnnn3c2c1	1.0
CCCNC(=O)NC(=O)CSc1nc2ccccc2n1CC(C)C	i
CCCCn1c(Nc2ccccc2)nc2ccccc21	0.5
COc1ccc(NC(=O)c2c(C)oc3c2CCCC3)cc1	i

Retrieved by compound from the entries so far:
canonical_smiles	H5N1 CPE
CC1Cc2ccccc2N1C(=O)CSc1nnc2c(n1)[nH]c1ccccc12 (stereo unspecified)	i
COc1ccc(CNC(=O)C2CCCN(S(=O)(=O)c3c(C)n[nH]c3C)C2)cc1 (stereo unspecified)	0.2
CCOc1cc(C)c(S(=O)(=O)Nc2ccc3cn[nH]c3c2)cc1C	i

Other results:
canonical_smiles	H5N1 CPE
CCN(CCNC(=O)Cn1c(=O)sc2ccccc21)c1ccccc1	2.4
Cc1cc2c(C)cc(=O)oc2c2c1NCCC2	i
COc1cc2c(cc1NC(=O)CSc1nc3ccccc3[nH]1)oc1ccccc12	0.1
N#CCCn1nnc2ccccc21	0.3
O=C(c1ccco1)N1CCN(S(=O)(=O)Cc2ccc(Cl)cc2)CC1	i
CCOC(=O)c1[nH]c2ccccc2c1NC(=O)CCN1CC(C)OC(C)C1 (stereo unspecified)	0.1
COc1cc2cc(CN(Cc3cccnc3)C(=O)NCc3ccccc3)c(=O)[nH]c2cc1OC	0.1
Cn1c(Cl)cnc1C1CC(=O)c2cc(Cl)ccc2O1 (stereo unspecified)	i
C#CCONC(=O)c1cc(OCC(F)(F)F)ccc1OCC(F)(F)F	i
Cc1ccc(OCC(=O)Nc2sc3c(c2C#N)CCC3)cc1C	i
Cc1nonc1NC(=O)c1ccccc1Br	i
COc1ccccc1-c1nc(C(F)(F)F)c(OC)o1	i
O=C(Nc1nccs1)c1ccc(NC(=O)c2ccco2)cc1	1.3
O=c1c2ccccc2nc(-c2ccco2)n1-c1cccnc1	i
CC(=O)/C(=N/Nc1ccccc1)N1CCOCC1	i
Cc1ccc(C(=O)NC2(C(F)(F)F)N=C3SCCN3C2=O)cc1 (stereo unspecified)	i
CC(=O)NC1C(=O)N=C(SCc2ccccc2)NC1=O (stereo unspecified)	0.4
CC(C)Cn1c(Cc2ccccc2)n[nH]c1=S	0.2
CCOC(=O)C1CCCN(C(=O)Cc2ccc(C)cc2)C1 (stereo unspecified)	0.6
O=C(NC1C2CC3CC(C2)CC1C3)C1CC1 (stereo unspecified)	1.1
Brc1cc(Br)c2ncnc(N3CCCCC3)c2c1	0.3
Cc1cc(OCc2nnc(SCC(=O)OC3CCCCC3)o2)ccc1Cl	i
O=C(COC(=O)CC1CC2CCC1C2)NC(=O)NCc1ccco1 (stereo unspecified)	0.6
O=c1cc(CN2CCN(c3ccccc3)CC2)c2c(ccc3ccccc32)o1	0.8
Cc1ccc(N2C(=O)C(Cl)=C(Nc3c(C)n(C)n(-c4ccccc4)c3=O)C2=O)cc1	0.1
CCOc1ccc(NC(=O)C(C)O)c(NS(=O)(=O)c2ccc(CCNC(C)=O)cc2)c1 (stereo unspecified)	1.0
COc1ccc(Cc2nnc(NC(=O)c3cccc([N+](=O)[O-])c3C)s2)cc1	i
COc1ccc(OC(=O)CCCN2C(=O)c3ccccc3C2=O)cc1	0.3
CCOC(=O)C1CCN(S(=O)(=O)c2cn(C)c(=O)n(C)c2=O)CC1	0.8
CCN(CC)CCOCCOc1cc(C)c(Cl)c(C)c1	i

mol: Cc1onc(-c2ccccc2)c1C(=O)OCC(=O)Nc1ccc2c(c1)OCO2
  H5N1 CPE: 0.3
mol: O=C(COc1ccc(Cl)cc1Cl)NCCCN1CCOCC1
  H5N1 CPE: i
mol: CCOC(=O)C(CC)n1cnc2sc3c(c2c1=O)CCC3 (stereo unspecified)
  H5N1 CPE: i
mol: CC1Cn2c(nnc2-c2cccc(N)c2)S1 (stereo unspecified)
  H5N1 CPE: 0.9
mol: CCC1Oc2ccc(C)cc2N(CC(=O)NCc2cccc(OC)c2)C1=O (stereo unspecified)
  H5N1 CPE: i
mol: O=C(Nc1cccc2nsnc12)c1cccs1
  H5N1 CPE: 0.3&0.8
mol: COc1ccc2nc(NC(=O)C3CCN(S(=O)(=O)c4cccnc4)CC3)sc2c1
  H5N1 CPE: i
mol: CC(=O)Oc1ccc2ccccc2c1C(NC(=O)C(C)C)c1cccc([N+](=O)[O-])c1 (stereo unspecified)
  H5N1 CPE: i
mol: COc1cccc(-n2c(SCC(=O)N3c4ccccc4CC3C)nnc2-c2ccco2)c1 (stereo unspecified)
  H5N1 CPE: 0.6
mol: O=C(COc1nncc2ccccc12)NCCC1=CCCCC1
  H5N1 CPE: i
mol: C=CCn1c(SCC(=O)NCC2CCCO2)nnc1C1CCCCC1 (stereo unspecified)
  H5N1 CPE: i
mol: CCC(=O)Nc1nc2c(OC)ccc(C)c2s1
  H5N1 CPE: 0.2
mol: CCCC(C)C1(CC)C(=O)NC(=Nc2ccc(F)cc2)NC1=O (stereo unspecified)
  H5N1 CPE: i
mol: COC(=O)c1cn(NC(=O)c2ccc(OC)c(OC)c2)c(=O)c2ccccc12
  H5N1 CPE: i
mol: Cc1ccc2nc3c(cc2c1)CC1(C(=O)N(C)C(=O)N(C)C1=O)C1COCCN31 (stereo unspecified)
  H5N1 CPE: 1.9
mol: COc1ccc(Cn2cc3c(-c4ccc(F)cc4)nnc-3c3cc(OC)c(OC)cc32)cc1
  H5N1 CPE: i
mol: CC1=C(C(=O)OC(C)C)C(c2cccs2)N2C(=O)CCSC2=N1 (stereo unspecified)
  H5N1 CPE: 0.0
mol: CCC(C)(C)C1CCc2c(sc(NC(=O)c3cccs3)c2C(N)=O)C1 (stereo unspecified)
  H5N1 CPE: i
mol: CCOn1c(=O)c(=O)n(OCc2ccccc2)c2ccccc21
  H5N1 CPE: i
mol: COC(=O)c1ccc(CSc2nc(C)nc3sc(C)c(C)c23)o1
  H5N1 CPE: 0.3
mol: Cc1ccnc(Nc2nc(-c3c(C)nc4sccn34)cs2)c1
  H5N1 CPE: 0.7
mol: Cc1cc(C(=O)CN2C(=O)NC3(CCCCC3)C2=O)c(C)n1Cc1ccc2c(c1)OCO2
  H5N1 CPE: i
mol: COc1ccc(OCC(O)CN2C(=O)NC(C)(C)C2=O)cc1 (stereo unspecified)
  H5N1 CPE: 0.6
mol: CCCOc1cccc(C(=O)Nc2cccc(NC(=O)c3ccco3)c2)c1
  H5N1 CPE: i
mol: O=C(CSc1nc2ccccc2s1)Nc1nccs1
  H5N1 CPE: 0.4

mol: Cc1ccc(OCC(=O)Nc2ccc(N3CCCC3)cc2)cc1C
  H5N1 CPE: 0.3
mol: Cc1cc(C)n(C(=O)CNC(=O)c2ccco2)n1
  H5N1 CPE: i
mol: Cc1cc(C(=O)CSc2n[nH]c(-c3ccccc3F)n2)c(C)n1Cc1cccs1
  H5N1 CPE: 0.2
mol: C=CCn1c(SCC(=O)Nc2c(C)cccc2C)nnc1-c1cnccn1
  H5N1 CPE: 0.5
mol: CCCNC(=O)COC(=O)c1ccc(S(=O)(=O)N2CCCCCC2)cc1
  H5N1 CPE: 1.7
mol: CC1CCC(C(C)C)C(OP(N)(=O)c2ccccc2)C1 (stereo unspecified)
  H5N1 CPE: 1.5
mol: Cc1cccc(N2CCN(S(=O)(=O)c3c(C)[nH]c(=O)[nH]c3=O)CC2)c1C
  H5N1 CPE: 0.4
mol: COc1ccc(-n2c(C)nn(C)c2=O)c(OC)c1
  H5N1 CPE: 0.1
mol: CCOC(=O)c1c(C)c(C(=O)NCc2ccccn2)c(C)n1CC
  H5N1 CPE: i
mol: CCCn1cnc2c(c1=O)c1nc3ccccc3nc1n2CCc1ccccc1
  H5N1 CPE: 1.2
mol: CC1CCCC(NC(=O)Nc2cccs2)C1C (stereo unspecified)
  H5N1 CPE: i
mol: O=C1COc2ccc(C(=O)c3ccccc3)cc2CN1
  H5N1 CPE: 0.1
mol: Cc1nn(-c2ccc(F)cc2)c2c1cc(C#N)c1nc3ccccc3n12
  H5N1 CPE: 0.6
mol: COc1ccccc1-c1c(C(F)(F)F)oc2cc(OC(=O)c3ccccc3[N+](=O)[O-])ccc2c1=O
  H5N1 CPE: 1.2
mol: Cc1ccn(Cc2n[nH]c(=S)n2Cc2ccccc2)n1
  H5N1 CPE: i
mol: CC1(C)CC(c2csc(N)n2)CCO1 (stereo unspecified)
  H5N1 CPE: 0.3
